TRPML1 blocker – inhibitors of human TRPML1 channel; Q9GZU1; TRPML1-inducible cells, Ca2+ dye fluorescence, FDSS; hits give low values; inhibition of EC80 agonist-evoked calcium signal; activity change, negative = inhibition, % (no concentration beside the values); 390,000 tested, 0.02% active; AID 624415; in the data active means activity change below about -50%; inconclusive means about -30% to -50%; inactive means above about -30%;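 also: stimulus is agonist 54-4 at its EC80 concentration; % is scaled to controls: 0 for no effect and ±100 for the full control effect; compound concentration not given in the record; the text of the record puts the active cut at -80%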
Target sequence (Q9GZU1 whole entry, looked up): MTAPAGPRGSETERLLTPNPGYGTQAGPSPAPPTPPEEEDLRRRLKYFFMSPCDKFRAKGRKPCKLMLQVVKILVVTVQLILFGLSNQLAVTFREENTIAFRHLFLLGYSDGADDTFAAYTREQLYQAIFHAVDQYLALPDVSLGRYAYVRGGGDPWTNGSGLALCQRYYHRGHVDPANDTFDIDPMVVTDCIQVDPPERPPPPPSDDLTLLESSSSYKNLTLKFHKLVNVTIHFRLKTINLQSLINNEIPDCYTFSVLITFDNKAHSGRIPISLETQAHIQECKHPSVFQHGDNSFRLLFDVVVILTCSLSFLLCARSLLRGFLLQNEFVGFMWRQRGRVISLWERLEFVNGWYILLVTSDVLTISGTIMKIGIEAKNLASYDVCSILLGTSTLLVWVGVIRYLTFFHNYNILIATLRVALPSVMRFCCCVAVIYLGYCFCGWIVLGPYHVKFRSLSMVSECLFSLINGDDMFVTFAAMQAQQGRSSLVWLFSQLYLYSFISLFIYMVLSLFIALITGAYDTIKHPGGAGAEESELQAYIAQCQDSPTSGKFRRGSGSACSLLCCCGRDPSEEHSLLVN
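TRPML1-DL cells, Tet-induced overnight (~16 h, 37 °C) at 1,500 cells/well, were loaded with Ca8 no-wash dye plus quencher for 45-90 min at room temperature. Compounds were pinned during FDSS kinetic reading; agonist 54-4 at EC80 (4 uM final) then added.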
Six1-Eya2 blk – blocks human Six1 binding to Eya2 | Q15475+O00167 | AlphaScreen GST-Six1/His-Eya2 binding, biochemical; hits give low values; control for the full effect not named in the record | activity change, % (test concentration not listed) | 360,000 tested, 0.56% active; in the data active = activity change below about -65%; inconclusive = about -30% to -65%; inactive = above about -30%; also: % is scaled to controls: 0 for no effect and ±100 for the full control effect; compound concentration not given in the record
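Homogeneous AlphaScreen proximity assay pairing GST-Six1 with His-tagged Eya2 (added as 5X mix: 250 nM and 500 nM) in 50 mM Tris pH 8.0, 300 mM NaCl, 1 mM TCEP. Glutathione donor and nickel acceptor beads; 1 h, 37 °C, dark.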
D2 PAM – positive allosteric modulators of human D2 dopamine receptor; P14416; DiscoveRx D2 beta-arrestin cells, luminescence, 90 min; 100% = 57 uM dopamine signal; potentiation, % (test concentration not listed); 360,000 tested, 0.23% active; active = potentiation of 50% or more; inconclusive = 30% to 50%; inactive = 30% or less;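 also: compound concentration not given in the record; tested on top of an EC20 dose of dopamine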
Target sequence (P14416 whole entry, looked up): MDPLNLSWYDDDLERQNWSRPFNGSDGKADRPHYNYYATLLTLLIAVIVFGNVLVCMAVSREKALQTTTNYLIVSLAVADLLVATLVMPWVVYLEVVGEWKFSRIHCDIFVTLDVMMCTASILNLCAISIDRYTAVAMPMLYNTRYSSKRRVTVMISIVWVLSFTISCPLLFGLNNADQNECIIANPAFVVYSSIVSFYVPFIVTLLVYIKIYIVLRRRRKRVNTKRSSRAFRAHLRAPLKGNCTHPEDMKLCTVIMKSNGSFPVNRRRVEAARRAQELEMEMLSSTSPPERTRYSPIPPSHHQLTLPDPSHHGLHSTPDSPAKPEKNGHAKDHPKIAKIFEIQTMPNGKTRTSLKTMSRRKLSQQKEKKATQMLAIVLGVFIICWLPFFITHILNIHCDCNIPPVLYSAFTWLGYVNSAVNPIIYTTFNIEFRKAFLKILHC
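D2 cells co-treated with compound plus 50 nM dopamine (EC20) for 90 min at 37 deg C to detect potentiation. Beta-arrestin recruitment was read as enzyme-fragment luminescence after 1 h at ambient temperature. Full response was set by 57 uM dopamine.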
TRPML1 ag – agonists of human TRPML1 channel. TRPML1-expressing cells, Ca2+ dye fluorescence, FDSS; host cell line not named in the record; reference of the full effect not given here. activation, % (no concentration beside the values). 410,000 tested, 0.12% active; in the data active = activation above about 50%; inconclusive = about 30% to 50%; inactive = below about 30%; also: 0% is about no effect; the text of the record puts the active cut at 80%
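Tetracycline-induced TRPML1-DL cells are seeded and incubated overnight before loading with a no-wash Ca2+ dye and quencher. Agonist activity is taken from the 110 s fluorescence read following compound pin-transfer on an FDSS, before EC80 54-4 challenge.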
D2 agonist – activates the human D2 dopamine receptor. P14416. DiscoveRx PathHunter D2 beta-arrestin, luminescence, 90 min; 100% = 57 uM dopamine signal. activation, % (no concentration beside the values). 360,000 tested, 0.084% active. AID 624465; in the data active = activation above about 40%; inconclusive = about 15% to 40%; inactive = below about 15%; also: compound concentration not given in the record; the text of the record calls up to 30% inactive
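Agonist mode: compounds alone added to overnight-plated D2 PathHunter cells for 90 min at 37 C, with 57 uM final dopamine (EC100) defining full response. Beta-arrestin recruitment detected by chemiluminescent reagent, read after 1 h at ambient temperature.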
PINK1 modulator – modulators of PINK1 expression | AID 624263 | 410,000 tested, 0.2% active | Potency, µM (series often up to 76.6 µM), without a hit: top-dose activation (PINK1 increase), hits mostly activators | PINK1 immunofluorescence, high-content cytometry, 24 h; active = well fitted activation curve with a large enough effect; inconclusive = small, poorly fitted or top-dose-only effect; inactive = flat fitted curve, though single readings scatter; cell line not stated here;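 also: potency is read from the fitted curve at half-maximal effect; % of control where 0% means no effect; nearly all actives have a fitted effect of over 65% in size; a mitochondrial uncoupler was the plate control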
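Readout is PINK1 immunofluorescence, quantified alongside mitochondrial, cell and nuclear markers by laser-scanning microplate cytometry. Cells from a stable line were exposed to compound titrations (5 concentrations) for 24 hours, with CCCP controls.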
* hit, by the source's call; u = inconclusive; x = no result given; & = joins results of further samples; [ ] = remark or other dose.

SMILES | TRPML1 blocker | PINK1 modulator | Six1-Eya2 blk | TRPML1 ag | D2 PAM | D2 agonist
CCCCSc1nc2c(cnn2-c2ccc(Cl)cc2)c(=O)[nH]1 | -5 | 0.2% | 1 | -0.2 | -13 | -0.3
O=C(NNC(=O)C12CC3CC(CC(O)(C3)C1)C2)c1ccccc1O | 7 | 1.4% | -15 | 0.5 | -10 | -0.5
CC(=O)N1CCc2c(sc3nc(SCC(C)C)n(-c4ccc(F)c(Cl)c4)c(=O)c23)C1 | -21 | 1.3% | x | -1.1 | x | x
Cc1ccc(S(=O)(=O)N(C)C)cc1NC(=O)C1CCCCC1 | 1 | -1.2% | 11 | -0.1 | -4 | 0.8
Cc1ccc(-c2csc(NC(=O)C3CC(=O)N(Cc4ccco4)C3)n2)cc1 (configuration not stated) | 24 | -0.1% | 0 | -0.4 | -5 | 0.9
Cc1ccc(/C=N/NC(=O)Cn2nnc(N)n2)cc1 | 16 | 1.0% | -2 | 0.7 | -11 | 1.1
O=C(/C=C/[C@H]1O[C@@H](n2ccc(=O)[nH]c2=O)[C@H](O)[C@@H]1O)NCCN1CCCC1 | -1 | 1.2% | 0 | 0.2 | 0 | 0.7
COc1ccc(-c2cc(C(F)(F)F)nc(-n3ccnc3C)n2)cc1 | -17 | 19% | 10 | -0.4 | -5 | -1.9

(listing goes on)
SMILES | TRPML1 blocker | PINK1 modulator | Six1-Eya2 blk | TRPML1 ag | D2 PAM | D2 agonist
Cc1ccc(NC(=O)CSCC(=O)N(C)CC(=O)Nc2c(C)cccc2C)cc1 | 1 | 0.1% | 17 | -0.9 | -20 | -3.6
COc1ccc(NC(=S)N2CCC(C(=O)c3ccc(C)cc3)CC2)cc1 | 1 | 1.5% | -7 | -0.8 | -21 | -5.1
COc1ccc(-n2nc(C(=O)O)c(=O)n(C)c2=O)cc1 | 0 | 3.4% | x | -0.6 | x | x
COc1cc(SC)ccc1C(=O)NCc1ccccc1 | 3 | 0.0% | 8 | 1.2 | -19 | -2.5
O=C(CN(CCc1ccccc1)S(=O)(=O)c1ccccc1)NCc1ccc(Cl)cc1 | 0 | -0.2% | x | 1.8 | x | x
COc1cc(NC(=O)c2ccco2)c(C(=O)OCC(=O)c2c[nH]c3ccccc23)cc1OC | -6 | -0.9% | -6 | -0.9 | 6 | 2.7
Cc1ccccc1N1CC(C(=O)Nc2nnc(SCc3ccccn3)s2)CC1=O (configuration not stated) | -7 | 1.9% | -7 | -0.3 | -14 | -0.9
CC1CCCCN1CCCNC(=O)c1cc(Sc2cccc(Cl)c2)nc2ccccc12 (configuration not stated) | 18 | -6.0% | x | 0.6 | x | x

(further entries)
SMILES | TRPML1 blocker | PINK1 modulator | Six1-Eya2 blk | TRPML1 ag | D2 PAM | D2 agonist
O=C(Nc1nc(-c2cccs2)cs1)c1ccc(S(=O)(=O)N2CCCC2)cc1 | -2 | 5.5%[38.3 µM] | -13 | 0.4 | -7 | -0.1
O=C(COC(=O)COc1ccccc1Cc1ccccc1)Nc1cccnc1Cl | 7 | 2.7% | 3 | 1.6 | 12 | -2.8
CCOc1ccc(/C=N/NC(=S)NC2CC3C=CC2C3)cc1 (configuration not stated) | 37 | 4.7% | -2 | 1.5 | -11 | -8.8
CCOC(=O)C(C)Oc1cccc2c(=O)n(CC(=O)N3CCc4ccccc43)ccc12 (configuration not stated) | 28 | 0.5% | 5 | 0.0 | -5 | -4.9
COc1cccc(CNC(=O)c2cccc(S(=O)(=O)N3CCN(C)CC3)c2)c1 | -15 | 2.5% | 5 | -0.1 | 1 | 0.5
Cc1ccn(C(CC(=O)c2ccc(Br)cc2)C(=O)O)n1 (configuration not stated) | 30 | -1.2%[38.3 µM] | 2 | -0.2 | -6 | -2.1
Cc1cccc(N(C(=O)c2sc(C)nc2C)C(C(=O)NCc2ccco2)c2ccccc2)c1 (configuration not stated) | -12 | -2.6%[38.3 µM] | 2 | -0.2 | -5 | -2.6
CC(=O)Nc1nc2ccc(-c3nc4ccccc4o3)cc2s1 | -25 | 4.7% | 2 | 0.6 | -2 | -1.5

Next results
SMILES | TRPML1 blocker | PINK1 modulator | Six1-Eya2 blk | TRPML1 ag | D2 PAM | D2 agonist
CC(=O)NC(C)Cc1cn(Cc2ccccc2)c2ccccc12 (configuration not stated) | -3 | 1.1% | -3 | 0.2 | -25 | -0.6
CCC(=O)n1nc(NCc2ccc(OC)c(OC)c2)nc1NCc1ccc(OC)c(OC)c1 | 45 | 2.5% | -11 | -0.1 | -7 | 0.6
Cc1ccc2nc(Nc3ccc4[nH]c(=O)[nH]c4c3)c(-n3nc(C)cc3C)nc2c1 | 13 | 11%[38.3 µM] | -9 | 1.7 | -18 | -1.4
Cc1nc2oc(C(=O)c3ccccc3)c(N)c2c2c1COC(C)(C)C2 | -8 | 1.6% | 6 | -0.7 | -16 | -9.5
CCCC(CCC(=O)Nc1ccn(-c2ccccc2)n1)C(=O)O (configuration not stated) | -2 | -2.3% | 7 | 1.1 | 0 | -1.4
Cc1ccc(O)c(NC(=S)NC(=O)COc2ccc(Br)cc2)c1 | -11 | 13% | -3 | u | -5 | -8.6
O=C(CN1C(=O)CSc2ccc(S(=O)(=O)N3CCCCC3)cc21)NCc1ccccc1Cl | 16 | -0.5% | -8 | -1.1 | -1 | 6.9
COC(=O)C1=C(C)N(CCCC(=O)O)C(=O)NC1c1ccccc1OS(=O)(=O)c1ccccc1[N+](=O)[O-] (configuration not stated) | -5 | 3.3% | 2 | 0.0 | -12 | 5.6

Part of the list above, set out differently:
Cc1ccc(S(=O)(=O)N(C)C)cc1NC(=O)C1CCCCC1
  TRPML1 blocker = 1
  PINK1 modulator = -1.2%
  Six1-Eya2 blk = 11
  TRPML1 ag = -0.1
  D2 PAM = -4
  D2 agonist = 0.8
O=C(Nc1nc(-c2cccs2)cs1)c1ccc(S(=O)(=O)N2CCCC2)cc1
  TRPML1 blocker = -2
  PINK1 modulator = 5.5%[38.3 µM]
  Six1-Eya2 blk = -13
  TRPML1 ag = 0.4
  D2 PAM = -7
  D2 agonist = -0.1
Cc1ccc(O)c(NC(=S)NC(=O)COc2ccc(Br)cc2)c1
  TRPML1 blocker = -11
  PINK1 modulator = 13%
  Six1-Eya2 blk = -3
  TRPML1 ag = u
  D2 PAM = -5
  D2 agonist = -8.6
COc1ccc(NC(=S)N2CCC(C(=O)c3ccc(C)cc3)CC2)cc1
  TRPML1 blocker = 1
  PINK1 modulator = 1.5%
  Six1-Eya2 blk = -7
  TRPML1 ag = -0.8
  D2 PAM = -21
  D2 agonist = -5.1

Carrying on:
SMILES | TRPML1 blocker | PINK1 modulator | Six1-Eya2 blk | TRPML1 ag | D2 PAM | D2 agonist
C[n+]1ccn(CC(=O)c2cccs2)c1 | 44 | 2.3% | 6 | 0.5 | -28 | -4.3
O=C(Nc1cc(C(F)(F)F)cc(C(F)(F)F)c1)c1ccc(Cn2cc(C(F)(F)F)ccc2=O)cc1 | -6 | u | 1 | -0.1 | u | 2.5
Cn1c(=O)c2c([nH]c(=O)n2C)n(C)c1=O | 9 | -0.7% | 11 | 0.7 | -5 | 1.0
Cc1ccc2sc3ccc(NC(=O)c4ccccc4Cl)cc3c(=O)c2c1 | 25 | 5.9%[38.3 µM] | 12 | 0.1 | -6 | 1.4
CC(=O)Nc1c(C)cc(S(C)(=O)=O)cc1C | 4 | -1.6% | 5 | -0.1 | 3 | -4.2
COC(=O)[C@H]1[C@H]2C[C@H]3c4[nH]c5ccccc5c4CCN3C[C@@H]2CC[C@@H]1O | 2&1 | 2.1%&1.0% | -8&0 | 0.5&-0.8 | -22&-26 | 8.4&1.8
COc1ccc(NC(=O)c2ccc3c(c2)N(C)CCS3)cc1 | 18 | 0.7% | -3 | 0.9 | -9 | -1.4
O=C(/C=C/c1ccccc1Cl)N1CCOCC1 | 1 | 1.3% | 0 | -0.2 | -2 | -1.3

The list continues:
SMILES | TRPML1 blocker | PINK1 modulator | Six1-Eya2 blk | TRPML1 ag | D2 PAM | D2 agonist
CCCCOc1ccc(C(=O)Nc2ccc(C)cc2[N+](=O)[O-])cc1 | -15 | -0.1% | -26 | 1.8 | -5 | -1.1
O=C(Nc1cccc(F)c1)c1ccc2oc(=O)n(Cc3ccccc3)c2c1 | 22 | 8.0% | x | 1.0 | x | x
Cc1[nH]n(C(C)(C)C)c(=O)c1Sc1ccc(Cl)cc1 | 80 | -4.4% | 15 | -0.7 | -9 | -3.8
COCCNC(=O)CCC1CCN(Cc2cccc(-c3ccc(C)o3)c2)CC1 | -4 | 2.0% | -5 | -0.6 | -22 | -4.9
CC(C)CNC(=S)NC(=O)c1ccc(Cl)cc1 | -6 | 11% | -22 | 0.0 | -8 | -2.2
Cc1[nH]c2ccccc2c1SCC(=O)O | 0 | 0.4% | -3 | -0.3 | -9 | -0.8
CCCCCCCCOC(=O)c1ccc(N)cc1 | -2 | 4.1% | 11 | -1.5 | -3 | 1.0
CCc1nc(N2CCCC2)c(C#N)c2c1CCCC2 | -13 | -1.7% | 5 | 0.0 | -2 | -7.4

More structures
SMILES | TRPML1 blocker | PINK1 modulator | Six1-Eya2 blk | TRPML1 ag | D2 PAM | D2 agonist
Cc1ccc(-c2nc3c(c(=O)c4ccccc4n3C)c(=O)n2-c2ccccc2)cc1 | 2 | -0.6% | 0 | -0.1 | -25 | -2.2
COCC(=O)N1CCc2ccc(NC(=O)c3ccccc3Cl)cc2C1 | 0 | 0.9% | 3 | 0.0 | -2 | -3.8
CS(=O)(=O)Cc1ccc(C(=O)NC2CCN(Cc3ccccc3)C2)cc1 (configuration not stated) | -4 | 1.7% | -2 | 0.3 | -11 | 1.6
NCCN1CCN(CCN)CC1 | -17 | -4.3% | 8 | -0.4 | 3 | -2.6
O=C(c1cc(COc2ccccc2)on1)N1CCCC(OCc2cccnc2)C1 (configuration not stated) | -11 | 0.7% | -1 | 1.4 | 1 | -2.5
CC1(C)C(=O)N(OCc2ccccc2)C(C)(C)C(=O)N1OCc1ccccc1 | 6 | -1.8% | 3 | 2.7 | -7 | -2.0
COc1cc(-c2ccno2)ccc1S(=O)(=O)N1CCN(c2ccc(C(C)=O)cc2)CC1 | -5 | 0.8% | x | 2.5 | x | x
COc1ccccc1-c1nnc(-c2ccc(F)cc2)o1 | -18 | 0.8% | 1 | -0.5 | -5 | -4.4

(cont.)
SMILES | TRPML1 blocker | PINK1 modulator | Six1-Eya2 blk | TRPML1 ag | D2 PAM | D2 agonist
O=C1CCCN1CC(O)CS(=O)(=O)Cc1ccccc1 (configuration not stated) | -10 | -0.7% | 1 | -0.1 | -3 | -2.8
CCCOC(=O)c1ccc(NC(=O)C(=O)NCCN(CC)CC)cc1 | 4 | -1.4% | 1 | 0.0 | -5 | -4.0
COc1ccc(OC)c(CNC(=O)c2nn(-c3ccc(OC)c(Cl)c3)c(=O)c3c2c2ccccc2n3C)c1 | 6 | 1.2% | x | -0.1 | x | x
COc1ccc(OC)c(CNC(=O)C(C)n2nc(C)c3c(C)n(-c4ccccc4)nc3c2=O)c1 (configuration not stated) | 14 | -0.8% | -1 | 0.3 | -3 | 0.7
CC(NC(=O)C(C)(C)C)C(c1cccs1)N1CCN(Cc2ccccc2)CC1 (configuration not stated) | 59 | 1.0% | -1 | 0.3 | -23 | -4.5
